Bioassay records as filed in PubChem.
BJeLR viability: BJeLR cell viability loss; inhibition, % (test concentration not listed); 300,000 tested, 0.17% active; AID 1554; BJeLR (HRASV12) viability, CellTiter-Glo ATP luminescence, 48 h; reference of the scale not given here;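 active = replicate mean above 50%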;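 also: 50 nL library stock added to about 25 µL; numbers are from one replicate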
RN4220 kill: kills Staphylococcus aureus RN4220; S. aureus RN4220 growth, OD600, 16 h; inhibition, % (concentration not given with the values); 330,000 tested, 0.33% active;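 active = z-score of -3 or lower and OD600 up to 0.18 on both plates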;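 also: plate controls were untreated cells for no effect and reference antibiotic for full effect; stock transfer was 100 nL into about 80 µL; one replicate is shown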
Autofluor counter: compound fluorescence in toxin protease inhibitor counterscreen. 360,000 tested, 3.1% active. AID 624483. compound autofluorescence counterscreen, microsphere flow cytometry; stronger effect = higher value. fluorescence intensity (concentration not given with the values);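 active = at least 3 SD above the mean of all compounds, about 16000 in these data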;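 also: 100 nL of 1 mM stock went into each well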
PrP UTR inh: inhibition of PrP 5' UTR reporter expression; inhibition, % (test concentration not listed); 340,000 tested, 0.35% active; cell-based PrP 5' UTR mRNA reporter, plate reader;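 active = every replicate at 50% or more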;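 also: 0 = median of the neutral control wells; tested in H4 reporter cells; numbers are from one replicate; inactives centre near -14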
Mtb hypoxia inh: Mtb hypoxia fluorescent reporter inhibition; M. tuberculosis hypoxia-regulated fluorescent reporter, fluorescence; fluorescence inhibition, % (concentration not given with the values); 300,000 tested, 0.1% active; AID 1159583;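 active = 35 to 45% if threefold the growth effect, above 45% if 1.5-fold the growth effect; inactive = the rest, general growth blockers included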;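 also: wells of about 50 µL received 100 nL stock; 0% = vehicle wells and 100% = reference inhibitor wells; whole bacteria with a GFP reporter of the hypoxia response; strong numbers were not always called active; many hits fall short of the cut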
ugtP null kill: kills S. aureus RN4220 lacking UgtP; S. aureus RN4220 ugtP deletion, OD600 growth, 16 h; some inactives read as strong as hits; growth inhibition, % (concentration not given with the values); 330,000 tested, 0.54% active; AID 1259309;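 active = z-score under -3 and OD600 up to 0.15 on both plates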;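 also: plate controls were untreated wells for no effect and antibiotic for full effect; wells of about 80 µL received 100 nL stock; the first replicate is given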
Mtb hypoxia inh growth: recorded beside Mtb hypoxia inh, whose call it bears; growth inhibition, %; measured here: M. tuberculosis growth (absorbance);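 0% = vehicle and 100% = reference antibiotic; read after six days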
Active calls of the source: *; . = no result given.

SMILES	BJeLR viability	RN4220 kill	Autofluor counter	PrP UTR inh	Mtb hypoxia inh	Mtb hypoxia inh growth	ugtP null kill
CC(=O)NC1=NC(=O)C(=Cc2cc(C)n(-c3cccc(C(=O)O)c3)c2C)S1	.	3.3	.	.	10	6	4
OCCNC(=S)c1ccccc1	3	2.6	6206	-13	6	11	3
O=C(Nc1cccc([N+](=O)[O-])c1)c1[nH]ncc1Cl	11	5.9	6969	-25	12	1	-10
COc1ccc(CNC(=O)CCn2c(=O)oc3ccccc32)cc1	10	3.6	9548	-25	4	8	0
CC12CNCC(C)(CN(C3(O)C(=O)Nc4ccc(Br)cc43)C1)C2=O (stereo unspecified)	6	-0.4	4865	-22	1	-17	0
C=CCn1c2ccccc2c2nnc(SCC(=O)Nc3c(C)n(C)n(-c4ccccc4)c3=O)nc21	.	-2.9	2644	-14	10	11	-12
CSc1ccc(C2C(C(=O)c3ccco3)=C(O)C(=O)N2c2nnc(SC)s2)cc1 (stereo unspecified)	-4	.	7823	-16	.	.	.
CCOP(=O)(c1ccc(N(C)C)cc1)C(O)c1ccccc1OC (stereo unspecified)	2	6.3	18542*	-20	3	7	-3
COc1ccc(C(=O)NCC(=O)N/N=C/c2ccc([N+](=O)[O-])o2)cc1OC	2	.	4321	-18	.	.	.
Cc1cc(Cl)c(S(=O)(=O)N2CCSCC2)cc1OCC(=O)NC1CCCCC1	9	-0.1	8900	-16	6	11	1
Nc1ncnc2c1ncn2[C@@H]1O[C@H](CNCc2ccccc2)[C@@H](O)[C@H]1O	.	-0.9	3957	-7	-3	-5	2
CNC(=S)N1N=C(c2ccc(C)cc2)CC1c1cc(OC)ccc1OC (stereo unspecified)	0	-1.8	3617	-4	2	-11	-12
NC(=O)c1cc(S(=O)(=O)N2CCOCC2)ccc1Sc1ccccc1N	.	6.3	5903	-42	13	1	5
COc1ccc(Cc2c(O)nc(SCC(C)C)[nH]c2=O)cc1	-13	10	4060	-14	-1	3	7
CCO[C@H]1OC(C(=O)NCc2ccccc2)=C[C@@H](c2ccccc2)[C@@H]1CCCO	-7	.	3805	-17	.	.	.
CCc1nnc(NC(=O)CCC(=O)N2CCN(Cc3ccc(OC)c(F)c3)CC2)s1	-10	1.5	4747	-30	2	-1	2
CC1Sc2ccccc2N(CC(=O)N(C(C)C)C(C)C)C1=O (stereo unspecified)	2	2.3	2435	-12	.	.	10
N#CC1=C(N)OC2=C(C(=O)CCC2)C12CCC1(CC2)OCCO1	-14	4.7	4272	-21	9	13	6
O=C(COc1ccc(C(=O)c2ccc(F)cc2)cc1)Nc1cccc(S(=O)(=O)N2CCOCC2)c1	.	0.6	3808	-17	2	5	-3
COc1ccccc1N1CC(C(=O)OCC(=O)c2ccc(F)cc2)CC1=O (stereo unspecified)	-10	1.6	23806*	-25	6	16	-2
CCOC(=O)N1CCN(S(=O)(=O)c2ccc(C(=O)Nc3sc4c(c3C#N)CCC4)cc2)CC1	-4	3.5	10896	-9	-4	3	1
CCC(C)c1ccc(NC(=O)COC(=O)c2nc3nccc(C)n3n2)cc1 (stereo unspecified)	2	7.1	4547	-13	6	10	15
COc1ccc(OCC(=O)NNC(=O)C(=O)Nc2cc(OC)ccc2OC)cc1	-7	0.2	6232	-12	0	-5	0
CC(C)N(Cc1nc2ccccc2c(=O)[nH]1)C(=O)c1ccc(NC(=O)CSc2nnnn2C)cc1	.	5.9	3917	-22	20	8	-2
CCOC(=O)c1ccc(NC(=O)c2nc[nH]c2C(=O)N(CC)CC)cc1	11	2.0	3100	3	6	7	-2
Cc1ccc2[nH]cc(CCNC(=O)C3CCCCC3)c2c1	-4	4.8	4066	-15	5	4	5
O=C(CN1CCc2ccccc2C1)NCC(=O)Nc1ccc(F)cc1	-7	1.1	4097	-12	7	7	-1
O=C1C(Cc2cccc([N+](=O)[O-])c2)SC(=NN=Cc2ccco2)N1c1ccccc1 (stereo unspecified)	.	1.2	.	.	4	-4	-5
O=C(O)CNC(=S)N(Cc1ccccc1)Cc1cccnc1	.	-0.8	4452	-16	9	2	5
CC(C(=O)NCc1ccccn1)C1C[C@]1(C)C(NC(=O)OCc1ccccc1)c1ccccc1 (stereo partly specified)	.	2.0	.	.	1	-12	4
COc1ccc(Cl)cc1NC(=O)Nc1ccccc1SC	3	-1.8	4636	-40	1	9	0
NC(=O)NCc1ccccc1F	-4	5.6	4525	-32	2	11	-2
COc1cc(NC(=O)c2ccc3c(c2)OCCO3)ccc1NC(=O)c1cccs1	.	4.5	4333	-49	-10	-1	10
COC(=O)c1sccc1OCc1cccc(OC)c1	-6	3.5	1953	-3	-1	2	14
CCC(c1nnc(SCC(=O)NCC2CCCO2)n1Cc1ccccc1)N(C)C (stereo unspecified)	5	2.0	3071	-12	.	.	6
C[C@H](NCc1c[nH]c2ccccc12)c1ccccc1	0	-2.7	3929	-43	-5	9	-2
CCCc1ccc2oc(C(=O)N3CCCC3)c(C)c2c1	0	13	3273	-42	21	15	2
CC(=O)Nc1ccc2nc(NC(=O)COc3ccccc3Cl)sc2c1	3	8.7	4512	-33	14	6	-75
CCn1c(SCC(=O)Nc2cccc(C)n2)nc2c1c(=O)n(C)c(=O)n2C	0	4.3	2564	-8	4	-1	2
Cc1ccc(-n2nnnc2SCC(=O)c2c(N)n(C3CC3)c(=O)[nH]c2=O)cc1	.	2.9	3950	-30	-3	-6	2
CC(C)C(=O)Nc1c(-c2ccccc2Cl)c(=O)c2ccccc2n1C	-7	1.2	3699	-4	4	9	1
Nc1c(C(=O)O)sc2nc(-c3ccccc3)cc(-c3ccc(F)cc3)c12	0	5.2	8872	1	-1	6	3
CC1=CC(c2ccccc2)n2nc(NC(=O)CCCC(=O)O)nc2N1 (stereo unspecified)	4	3.5	3856	-41	7	4	18
COc1ccc2c(c1)c(C)cc[n+]2Cc1ccccc1	7	4.0	2797	-54	0	-3	2
O=C(CCN1C(=O)/C(=C/c2cccs2)SC1=S)Nc1ccc(C(=O)O)c(O)c1	2	2.7	6555	-42	.	.	-7
COc1ccc2nc(C)cc(C(=O)O)c2c1	1	-6.3	2571	-23	15	13	-3
CC(C)n1c(N2CCN(C(=O)Nc3ccccc3)CC2)nc2ccccc21	1	-1.7	4142	-26	.	.	-1
O=C(Cc1ccc([N+](=O)[O-])cc1)Nc1nnc(C2CC2)s1	5	2.0	2239	-13	5	-2	-4
CC(NC(=O)c1cc2ccccc2o1)c1cccs1 (stereo unspecified)	6	5.4	11959	-2	.	.	-7
NNC(=S)Nc1cc(S(=O)(=O)N2CCOCC2)ccc1N1CCOCC1	-3	2.4	3297	-23	-2	4	6
Cc1cc(C)c2nc(-c3cccnc3)cc(C(=O)NC(C)c3cnn(C)c3C)c2c1 (stereo unspecified)	-3	8.0	4088	-7	-5	-5	-69
O=C(Nc1ccccc1)c1ccc[nH]1	-1	3.9	2286	-32	7	7	0
Cc1ccccc1-n1nc(C)c2cc(C(=O)N3CCN(S(=O)(=O)c4ccc(F)cc4)CC3)sc21	1	-0.7	10665	.	0	4	-6
Br/C(C=Nn1cnnc1)=C\c1ccccc1	.	6.4	.	.	.	.	1
CCOC(=O)N1CCC(N2CC34C=CC(O3)C(C(=O)Nc3ccc(C)cc3)C4C2=O)CC1 (stereo unspecified)	-12	-4.9	5325	-8	.	.	-3
O=C(c1cccc([N+](=O)[O-])c1)N1CCN(S(=O)(=O)N2CCCCC2)CC1	13	0.6	4377	8	-1	-5	2
CCc1ccc(OCc2nnc(-c3ccccc3Br)o2)cc1	.	20	.	-18	7	1	8
COc1ccc(OC)c(NC(=O)CC2Oc3ccccc3NC2=O)c1 (stereo unspecified)	9	5.2	3656	-25	13	1	6
Cn1cc(-c2cc(C(=O)O)on2)cn1	-5	2.1	4809	-13	8	2	3
Cc1ccc(NC(=O)CCC(=O)NN=Cc2cccnc2)cc1	.	0.8	.	.	4	-8	11

Nothing new here: entries from further up.
SMILES	BJeLR viability	RN4220 kill	Autofluor counter	PrP UTR inh	Mtb hypoxia inh	Mtb hypoxia inh growth	ugtP null kill
COc1ccc2nc(C)cc(C(=O)O)c2c1	1	-6.3	2571	-23	15	13	-3
CC(C)n1c(N2CCN(C(=O)Nc3ccccc3)CC2)nc2ccccc21	1	-1.7	4142	-26	.	.	-1
O=C(Cc1ccc([N+](=O)[O-])cc1)Nc1nnc(C2CC2)s1	5	2.0	2239	-13	5	-2	-4
CC(NC(=O)c1cc2ccccc2o1)c1cccs1 (stereo unspecified)	6	5.4	11959	-2	.	.	-7
NNC(=S)Nc1cc(S(=O)(=O)N2CCOCC2)ccc1N1CCOCC1	-3	2.4	3297	-23	-2	4	6
Cc1cc(C)c2nc(-c3cccnc3)cc(C(=O)NC(C)c3cnn(C)c3C)c2c1 (stereo unspecified)	-3	8.0	4088	-7	-5	-5	-69

Going on with the list:
SMILES	BJeLR viability	RN4220 kill	Autofluor counter	PrP UTR inh	Mtb hypoxia inh	Mtb hypoxia inh growth	ugtP null kill
Cc1onc(-c2ccccc2)c1-c1csc(N/N=C/c2ccccc2)n1	0	.	5343	-5	.	.	.
O=C(Nc1nnc(SCC(=O)N2CCCCC2)s1)c1ccc(F)cc1F	-10	.	5427	-7	.	.	.
COc1ccc(-c2nnc(-c3cc4ccccc4oc3=O)o2)cc1	-9	2.5	7269	-27	12	3	-4
O=C(CSc1nc(O)cc(=O)[nH]1)N1c2ccccc2CCc2ccccc21	5	1.3	3447	-1	-8	1	0
COc1cccc(-c2coc3cc4oc(=O)c(CC(=O)O)c(C)c4cc23)c1	-7	10	3222	-10	3	-3	-9
C/C(=N\NC(=O)c1cc(C)nc2ccccc12)c1ccc([N+](=O)[O-])cc1	4	.	4397	-10	.	.	.
O=C(O)CCCCCNc1nc(=S)[nH]c2ccccc12	-3	3.9	9332	-22	3	9	6
N#C/C(=C/c1ccc2c(c1)OCO2)C(=O)NCCc1c[nH]c2ccccc12	-5	6.0	10815	-8	6	9	-26
Cc1cc2c(=O)n(CC(=O)N3CCN(c4ccccc4)CC3)cnc2s1	.	1.8	4789	-7	.	.	3
COc1ccc(-n2ncc(Cl)c(Cl)c2=O)cc1	13	7.7	4120	.	21	11	1
O=C(O)c1ccccc1C(=O)c1ccc(-c2ccccc2)cc1	-2	24	3609	.	-4	1	-4
CC(=O)N1CCN(c2ccc(S(=O)(=O)N3CCOCC3)cc2[N+](=O)[O-])CC1	.	3.5	3913	-23	14	5	7
Cc1c(CN2CCC(CO)(Cc3ccccc3)CC2)c2ccccc2n1C	4	-0.2	2811	-9	4	4	-2
CN(C)CCCNC(=O)c1ccc(-c2nc(-c3ccc(Cl)cc3)cs2)cc1	5	32	10024	-24	9	6	84*
COc1ccc(OC)c(CNS(=O)(=O)c2cc(-c3cc(C)no3)ccc2OC)c1	-1	2.7	5991	-8	-6	0	0
Oc1ccc(Br)cc1/C=N/Nc1ncc(-c2ccccc2)cn1	5	.	4063	-33	.	.	.
COCc1cc(C)nc2sc(C(=O)NN)c(-n3cccc3)c12	12	1.0	3924	-118	-3	0	7

Entries of single compounds from above:
Entry for C/C(=N\NC(=O)c1cc(C)nc2ccccc12)c1ccc([N+](=O)[O-])cc1 = BJeLR viability = 4; RN4220 kill = .; Autofluor counter = 4397; PrP UTR inh = -10; Mtb hypoxia inh = .; Mtb hypoxia inh growth = .; ugtP null kill = .
Entry for O=C(CSc1nc(O)cc(=O)[nH]1)N1c2ccccc2CCc2ccccc21 = BJeLR viability = 5; RN4220 kill = 1.3; Autofluor counter = 3447; PrP UTR inh = -1; Mtb hypoxia inh = -8; Mtb hypoxia inh growth = 1; ugtP null kill = 0

Compounds were not picked by outcome; 3.9% or so of the library scored in one or more.
